Vaccinia inh: blocks a specific stage of Vaccinia orthopoxvirus infection, primary screen, cell-based, single point. Vaccinia-infected cells, mCherry/Venus stage reporter fluorescence; hits give low values; some inactives read as strong as hits. activity change (mCherry), % (test concentration not listed). hit rate 0.01% among 89,000. AID 1053133, 2014;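 active = mCherry past -33% and 40 or more points under the early reporter, replicates agreeing; inconclusive = past -33% without that gap or agreement; tested in A549 cells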;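 also: scaled between vehicle wells and reference inhibitor wells; 23 nL library stock went into each well; one replicate is shown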
Vaccinia inh Venus: recorded beside Vaccinia inh, whose call it bears; activity change (Venus), %; measured here: Venus reporter, other viral stage;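 negative = less Venus signal; first of two replicates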
Active calls of the source: *; ? = inconclusive; nt = no result given. These rows are one share of the data; count on the stated rates, not on these rows.

Fields – Vaccinia inh	Vaccinia inh Venus
O=C(O)C[C@H]1C[C@@H]2c3cc(NC(=O)Nc4ccccc4F)ccc3O[C@@H]2[C@H](CO)O1
 : 4	5
C[C@@H]1CN([C@@H](C)CO)C(=O)c2c(c3ccccc3n2C)-c2ccccc2CO[C@@H]1CN(C)S(=O)(=O)c1ccc(C#N)cc1
 : -35	-27
CCCC#Cc1ccc2c(c1)O[C@H](CN(C)Cc1ccc3c(c1)OCO3)[C@H](C)CN([C@H](C)CO)S2(=O)=O
 : ?	nt
CCC(=O)N(C)C[C@@H]1Oc2ncc(-c3cccc(OC)c3)cc2C(=O)N([C@H](C)CO)C[C@H]1C
 : 24	10
C[C@H](CO)N1C[C@H](C)[C@H](CN(C)C(=O)Nc2cccc3ccccc23)Oc2ccc(NC(=O)CCCCCC(=O)Nc3ccccc3N)cc2CC1=O
 : 30	29
COCC#Cc1ccc2c(c1)O[C@@H](CN(C)C(=O)c1ccccc1)[C@H](C)CN([C@H](C)CO)S2(=O)=O
 : 3	-3
CCNC(=O)C[C@H]1CC[C@H]2[C@@H](COC[C@@H](O)CN2C(=O)Nc2ccc3c(c2)OCO3)O1
 : 21	9
C[C@@H]1CN([C@@H](C)CO)C(=O)c2cc(C#Cc3ccccc3F)cnc2O[C@H]1CN(C)S(C)(=O)=O
 : 6	-7
COc1ccc(NC(=O)N2CCCCN3[C@H](C2)[C@@H](c2ccc(C#Cc4ccccn4)cc2)[C@@H]3CO)cc1
 : -1	-9
CCCN1C[C@@H](C)[C@@H](OC)CN(C)C(=O)c2ccc(NS(=O)(=O)c3ccccc3)cc2OC[C@@H]1C
 : -4	6
COc1ccc(NC(=O)N(C)C[C@@H]2OCCCC[C@@H](C)Oc3ccc(NS(=O)(=O)c4ccc(C)cc4)cc3C(=O)N([C@H](C)CO)C[C@H]2C)cc1
 : ?	nt
CN(C)C(=O)C[C@H]1C[C@H]2c3cc(NS(C)(=O)=O)ccc3O[C@H]2[C@H](CO)O1
 : 3	8
CCCNC(=O)N1[C@H](C#N)[C@@H](c2ccccc2-c2ccc(F)cc2)[C@@H]1CO
 : -10	1
Cc1ccc(S(=O)(=O)N2C[C@H]3[C@@H](c4ccccc42)[C@@H](CO)N3Cc2cccnc2)cc1
 : -9	-2
CO[C@@H](CN(C)S(=O)(=O)c1ccc(Cl)cc1)[C@@H](C)CN([C@H](C)CO)S(=O)(=O)c1cccc(Cl)c1
 : ?	nt
COc1cccc(S(=O)(=O)N[C@H]2C=C[C@@H](CC(=O)NCc3ccncc3)O[C@@H]2CO)c1
 : 13	15
C[C@@H]1CN([C@H](C)CO)C(=O)c2cc(C#C[C@@H](C)O)cnc2O[C@@H]1CN(C)Cc1ccc(-c2ccccc2)cc1
 : -18	-10
Cc1ccc(S(=O)(=O)Nc2ccc3c(c2)C(=O)N([C@H](C)CO)C[C@@H](C)[C@@H](CN(C)C(=O)Cc2ccccc2)OCCCC[C@H](C)O3)cc1
 : ?	nt
COc1ccc(C#Cc2cnc3c(c2)C(=O)N([C@H](C)CO)C[C@H](C)[C@H](CN(C)C(=O)NC(C)C)O3)cc1OC
 : 15	5
CN1C(=O)c2cc(NC(=O)c3cccs3)ccc2OC[C@@H]2O[C@H](CC(=O)NCC(F)(F)F)CC[C@@H]21
 : -4	-3
CCCN1C[C@H](C)[C@H](OC)CN(C)C(=O)c2cc(NC(=O)Nc3c(C)noc3C)ccc2OC[C@H]1C
 : 6	7
Cc1noc(C)c1NC(=O)N(C)C[C@@H]1Oc2c(NC(=O)c3ccncc3)cccc2C(=O)N([C@H](C)CO)C[C@H]1C
 : 1	-4
C[C@@H]1CCCCO[C@@H](CN(C)C(=O)NC2CCCCC2)[C@@H](C)CN([C@@H](C)CO)C(=O)c2cc(NC(=O)CCC(F)(F)F)ccc2O1
 : 11	11
C[C@@H]1CN([C@@H](C)CO)C(=O)c2cc(-c3ccncc3)cnc2O[C@H]1CN(C)S(=O)(=O)c1ccc(F)cc1
 : 4	-3
O=C(C[C@@H]1CC[C@H](NC(=O)C2CCOCC2)[C@@H](CO)O1)NCC1CCCCC1
 : -2	0
C[C@@H](NC(=O)[C@@H]1[C@@H](CO)[C@@H]2Cn3c(ccc(C4=CCCC4)c3=O)[C@H]1N2C(=O)C1CC1)c1ccccc1
 : 15	13
O=C(C[C@@H]1CC[C@H]2NC[C@@H](O)COC[C@@H]2O1)NC1Cc2ccccc2C1
 : 12	30
O=C(C[C@@H]1C[C@@H]2c3cc(NC(=O)Nc4ccccc4)ccc3O[C@@H]2[C@@H](CO)O1)NC1CCCC1
 : -1	-4
C[C@H]1CN([C@@H](C)CO)S(=O)(=O)c2ccc(Br)cc2O[C@H]1CN(C)Cc1ccccc1F
 : -27	-26
Cc1ccc(S(=O)(=O)Nc2ccc3c(c2)C(=O)N([C@@H](C)CO)C[C@@H](C)[C@H](CN(C)C(=O)Nc2ccc(C(F)(F)F)cc2)O3)cc1
 : 25	13

Brought forward from above: 3 entries, then new ones.
Fields – Vaccinia inh	Vaccinia inh Venus
O=C(C[C@@H]1C[C@@H]2c3cc(NC(=O)Nc4ccccc4)ccc3O[C@@H]2[C@@H](CO)O1)NC1CCCC1
 : -1	-4
C[C@H]1CN([C@@H](C)CO)S(=O)(=O)c2ccc(Br)cc2O[C@H]1CN(C)Cc1ccccc1F
 : -27	-26
Cc1ccc(S(=O)(=O)Nc2ccc3c(c2)C(=O)N([C@@H](C)CO)C[C@@H](C)[C@H](CN(C)C(=O)Nc2ccc(C(F)(F)F)cc2)O3)cc1
 : 25	13
CCCNC(=O)C[C@H]1CC[C@@H]2[C@@H](COc3ccc(NC(=O)c4cccc(F)c4)cc3C(=O)N2C)O1
 : -5	2
CN1C(=O)c2cc(NC(=O)c3cccc(F)c3)ccc2OC[C@H]2O[C@H](CC(=O)N3CCc4ccccc4C3)CC[C@H]21
 : -17	-15
COc1ccc(NC(=O)Nc2ccc3c(c2)C(=O)N([C@@H](C)CO)C[C@@H](C)[C@@H](CN(C)C(=O)Nc2ccccc2)OCCCC[C@H](C)O3)cc1
 : 20	14
COc1ccc(NC(=O)N(C)C[C@@H]2Oc3ncc(-c4ccc(C#N)cc4)cc3C(=O)N([C@@H](C)CO)C[C@@H]2C)cc1
 : 8	6
O=C(C[C@@H]1C[C@@H]2c3cc(NC(=O)Nc4ccc(C(F)(F)F)cc4)ccc3O[C@@H]2[C@@H](CO)O1)NC1CCCCC1
 : 7	8
CN(C)C(=O)C[C@H]1C[C@H]2c3cc(NC(=O)Nc4ccc(F)cc4)ccc3O[C@H]2[C@@H](CO)O1
 : 3	13
CN(C)Cc1cn(CC[C@@H]2CC[C@@H](NC(=O)Nc3ccccc3F)[C@@H](CO)O2)nn1
 : 7	4
COc1ccc(S(=O)(=O)Nc2ccc3c(c2)OC[C@H](C)NC[C@@H](C)[C@H](OC)CN(C)C3=O)cc1
 : 1	6
CCCNC(=O)N1C[C@@H](C)[C@H](OC)CN(C)C(=O)c2ccc(NC(=O)CC)cc2OC[C@@H]1C
 : 11	8
C[C@H]1CN([C@@H](C)CO)C(=O)CCCn2cc(nn2)CO[C@@H]1CN(C)C(=O)Nc1ccccc1C(F)(F)F
 : 4	-1
N#C[C@@H]1[C@@H](c2ccc(C#CC3CC3)cc2)[C@@H](CO)N1S(=O)(=O)Cc1ccccc1
 : 7	8
Cc1ccc(S(=O)(=O)Nc2ccc3c(c2)C(=O)N([C@@H](C)CO)C[C@H](C)[C@H](CN(C)S(=O)(=O)c2c(C)noc2C)OCCCC[C@@H](C)O3)cc1
 : -29	-18
COc1ccc(OC)c(NC(=O)CN=[N+]=[N-])c1
 : 20	17
C[C@@H]1CN([C@H](C)CO)C(=O)Cc2cc(NC(=O)Nc3cccc4ccccc34)ccc2O[C@H]1CN(C)Cc1ccc(C(F)(F)F)cc1
 : -17	-1
C[C@@H]1CN([C@H](C)CO)C(=O)c2cc(C3=CCCCC3)cnc2O[C@H]1CN(C)C(=O)Cc1ccncc1
 : -12	-15
COc1ccc(C#Cc2ccc3c(c2)[C@@H]2[C@@H](CCN2C(=O)c2ccncc2)[C@@H](CO)N3C)cc1
 : -26	-15
O=C(C[C@H]1C=C[C@H](NS(=O)(=O)c2ccc(F)cc2)[C@@H](CO)O1)NCc1ccc(Cl)c(Cl)c1
 : -22	-28
CC(C)CC#Cc1cnc2c(c1)C(=O)N([C@@H](C)CO)C[C@H](C)[C@@H](CN(C)C(=O)Nc1cccc(F)c1)O2
 : -15	-12
Cc1noc(C)c1S(=O)(=O)Nc1ccc2c(c1)CC(=O)N([C@H](C)CO)C[C@H](C)[C@@H](CN(C)C(=O)Nc1ccc(F)cc1)O2
 : 23	15
COc1ccccc1S(=O)(=O)N[C@H]1C=C[C@H](CC(=O)N2CCCCC2)O[C@H]1CO
 : 18	10
CCc1csc(N2[C@H](CO)[C@H](c3ccccc3)[C@@H]2CN(C)C(=O)C2CCC2)n1
 : 0	2
Cc1ccc(S(=O)(=O)Nc2ccc3c(c2)C(=O)N([C@@H](C)CO)C[C@@H](C)[C@H](CN(C)S(=O)(=O)c2ccc(F)cc2)O3)cc1
 : 8	5
C[C@@H]1CN([C@@H](C)CO)C(=O)c2ccccc2-c2ccccc2CO[C@H]1CN(C)C(=O)Cc1ccccc1
 : 8	-4
C[C@H](CO)N1C[C@H](C)[C@@H](CN(C)Cc2ccc(C(F)(F)F)cc2)Oc2ccc(NC(=O)CCCN(C)C)cc2CC1=O
 : -22	-27
COc1ccc2c3c([nH]c2c1)[C@H](CO)N(Cc1cccc(Cl)c1)CC31CCN(C)CC1
 : ?	nt
CC(=O)NC[C@H]1[C@@H](c2ccc(-c3ccccc3F)cc2)[C@@H](CO)N1C(C)=O
 : 11	16
C[C@@H]1CN([C@H](C)CO)S(=O)(=O)c2ccc(-c3ccncc3)cc2O[C@@H]1CN(C)Cc1ccc(Oc2ccccc2)cc1
 : ?	nt
C[C@H](CO)N1C[C@H](C)[C@@H](CN(C)C(=O)Nc2ccc(C(F)(F)F)cc2)OCCCC[C@H](C)Oc2ccc(NC(=O)Nc3ccc4c(c3)OCO4)cc2C1=O
 : -1	5
COc1ccc(S(=O)(=O)Nc2ccc3c(c2)C(=O)N([C@H](C)CO)C[C@H](C)[C@@H](CN(C)C(=O)Cc2ccccc2)OCCCC[C@H](C)O3)cc1
 : -10	-16
CC(C)CC#Cc1cnc2c(c1)C(=O)N([C@H](C)CO)C[C@H](C)[C@@H](CN(C)Cc1ccccc1F)O2
 : -34	-31
C[C@@H]1CN([C@@H](C)CO)C(=O)c2cc(NC(=O)Nc3ccc(F)cc3)ccc2O[C@@H](C)CCCCO[C@@H]1CN(C)CC1CCCCC1
 : ?	nt
CCS(=O)(=O)N1Cc2cc(C(=O)O)nc(-c3cccc(-c4ccc(C#N)cc4)c3)c2[C@@H]1CCO
 : 5	6
O=S(=O)(Cc1ccccc1)N1CCCCN2[C@@H](CO)[C@H](c3ccc(C#Cc4ccccc4)cc3)[C@@H]2C1
 : -32	-19
O=C(CN1CCOCC1)N[C@@H]1CC[C@H](CCn2cc(C3CCCC3)nn2)O[C@H]1CO
 : 3	2
O=C(NCc1ccccc1)C1=C[C@@H](c2ccc(C(F)(F)F)cc2)C[C@@H](OCCCCO)O1
 : -14	-6
C[C@H]1CN([C@@H](C)CO)C(=O)Cc2cc(NC(=O)Cc3cn(C)c4ccccc34)ccc2O[C@H]1CN(C)Cc1ccc(-c2ccccc2)cc1
 : 11	11
C[C@@H]1CN([C@@H](C)CO)C(=O)c2cc(N(C)C)ccc2O[C@@H](C)CCCCO[C@H]1CN(C)Cc1ccncc1
 : -7	-12
C[C@H]1CN([C@@H](C)CO)C(=O)c2cccc(NC(=O)Nc3cccc4ccccc34)c2O[C@@H]1CN(C)C(=O)Nc1ccc2c(c1)OCO2
 : 6	18
C[C@@H]1CN([C@@H](C)CO)C(=O)Cc2cc(NC(=O)Cc3ccccc3)ccc2O[C@H]1CN(C)S(=O)(=O)c1ccccc1
 : -1	2
COc1ccc(S(=O)(=O)N[C@@H]2C=C[C@H](CC(=O)N3CCC(Cc4ccccc4)CC3)O[C@@H]2CO)cc1
 : ?	nt
Cc1ccc(S(=O)(=O)N(C)C[C@@H]2OCCCC[C@H](C)Oc3ccc(NC(=O)Cc4ccccc4)cc3C(=O)N([C@H](C)CO)C[C@@H]2C)cc1
 : -25	-27
C[C@H]1CN([C@@H](C)CO)C(=O)Cc2cc(NC(=O)C3CCCCC3)ccc2O[C@@H]1CN(C)S(=O)(=O)c1ccc(Cl)cc1
 : -29	-17
C[C@H](CO)N1C[C@H](C)[C@@H](CN(C)Cc2ccc(Oc3ccccc3)cc2)Oc2cc(-c3ccncc3)ccc2S1(=O)=O
 : 4	1
Cc1cc(C(=O)Nc2cccc3c2O[C@@H](CN(C)Cc2ccccc2)[C@@H](C)CN([C@@H](C)CO)C3=O)n(C)n1
 : 0	-3
O=C(c1ccc2c(c1)OCO2)N1C[C@@H]2[C@H](c3ccccc31)[C@@H](CO)N2CC1CCCC1
 : 8	3
COc1ccccc1-c1ccc2c(c1)O[C@H](CN(C)CC1CCOCC1)[C@@H](C)CN([C@H](C)CO)S2(=O)=O
 : -20	-8
Cc1ccc(S(=O)(=O)N(C)C[C@H]2Oc3ccc(NC(=O)C4CC4)cc3CC(=O)N([C@H](C)CO)C[C@H]2C)cc1
 : -6	-2

Exported comma-delimited: 4 of the compounds above.
SMILES,Vaccinia inh,Vaccinia inh Venus
Cc1noc(C)c1S(=O)(=O)Nc1ccc2c(c1)CC(=O)N([C@H](C)CO)C[C@H](C)[C@@H](CN(C)C(=O)Nc1ccc(F)cc1)O2,23,15
COc1ccccc1S(=O)(=O)N[C@H]1C=C[C@H](CC(=O)N2CCCCC2)O[C@H]1CO,18,10
CCc1csc(N2[C@H](CO)[C@H](c3ccccc3)[C@@H]2CN(C)C(=O)C2CCC2)n1,0,2
Cc1ccc(S(=O)(=O)Nc2ccc3c(c2)C(=O)N([C@@H](C)CO)C[C@@H](C)[C@H](CN(C)S(=O)(=O)c2ccc(F)cc2)O3)cc1,8,5

Assay outcomes from PubChem BioAssay.
